Screening results from PubChem.
miR-21 reporter – raises the signal of a miR-21 reporter; HeLa miR-21 FLuc reporter, luciferase, 48 h; Potency, µM (doses to about 38.3 µM), for inactives: top-dose reporter change, positive = more light; 340,000 tested, under 10 active; AID 2288; active = well fitted rising curve with a large enough effect; inconclusive = small, poorly fitted or top-dose-only effect; inactive = no such curve, though single readings can be large or run the other way;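 also: % of control where 0% means no effect; miR-21 action dims this reporter so a rising signal means less miR-21 action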
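Compounds were titrated across several concentrations (up to approximately 40 uM) and incubated 48 hours with HeLa miR-21-FLuc reporter cells (miR-21 target sequence downstream of FLuc, endogenous miR-21). Readout was firefly luciferase luminescence after lytic detection reagent.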
Rango release inh – prevents RanGTP from dissociating the Rango-importin beta complex; O95149+P62826; Biochemical FRET Rango-importin beta, RanGTP-induced dissociation; Potency, µM (highest dose often 46.1 µM), for inactives: at the highest dose activity change, negative = inhibition; actives 0.071% (n = 340,000); active means falling FRET ratio curve, often poorly fitted, with flat reads before Ran was added; inconclusive means other falling curves, or compound fluorescence or quenching; inactive means flat or rising ratio curve;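 also: potency is read from the fitted curve at half-maximal effect; % of control where 0% means no effect; nearly all actives have a fitted effect of over 45% in size; -100% = wells without RanGTP and RCC1; the record marks most hits as doubtful in a second field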
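Two FRET readings bracket the reaction: one 5 min after compound meets Rango–importin beta, another 45 min after RanGTP-RCC1 (0.6 uM Ran, 0.2 uM RCC1, 2 mM GTP) is added. Only the second defines inhibition.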
Rango-impB inh – prevents formation of the Rango-importin beta complex; Q14974; Rango CFP/YFP FRET sensor + importin beta, 45 min; Potency, µM (series often up to 92.2 µM), without a hit: at the top dose inhibition of complex formation; actives 0.031% (n = 340,000); AID 540263; active = rising FRET ratio curve, often small or poorly fitted; inconclusive = mostly compound fluorescence or quenching in the first reads; inactive = flat curves in all reads;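 also: potency is read from the fitted curve at half-maximal effect; 0% = DMSO wells and 100% = buffer wells lacking importin beta; nearly all actives have a fitted effect of over 15% in size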
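Inhibition scored from the CFP 486 nm/YFP 530 nm FRET ratio 45 min after adding 0.125 microM importin beta to 50 nM Rango biosensor preincubated 5 min with compound (room temperature, PBS with DTT, Tween-20, BSA). No-importin wells as positive control.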
GLA inh pH 4.5 – blocks human alpha-galactosidase A at pH 4.5. P06280. purified enzyme, 4-MU-alpha-Gal fluorescence, pH 4.5. activity change, negative = inhibition, % at 105 µM. 230,000 tested, under 10 active; inconclusive = small, poorly fitted or top-dose-only inhibition, or a rising curve; inactive = flat fitted curve, though single readings scatter; no compound was filed as active;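 also: 0% = full activity with enzyme and -100% = basal without enzyme; dose as in the result columns while the protocol names 77 µM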
Target sequence (P06280 whole entry, looked up): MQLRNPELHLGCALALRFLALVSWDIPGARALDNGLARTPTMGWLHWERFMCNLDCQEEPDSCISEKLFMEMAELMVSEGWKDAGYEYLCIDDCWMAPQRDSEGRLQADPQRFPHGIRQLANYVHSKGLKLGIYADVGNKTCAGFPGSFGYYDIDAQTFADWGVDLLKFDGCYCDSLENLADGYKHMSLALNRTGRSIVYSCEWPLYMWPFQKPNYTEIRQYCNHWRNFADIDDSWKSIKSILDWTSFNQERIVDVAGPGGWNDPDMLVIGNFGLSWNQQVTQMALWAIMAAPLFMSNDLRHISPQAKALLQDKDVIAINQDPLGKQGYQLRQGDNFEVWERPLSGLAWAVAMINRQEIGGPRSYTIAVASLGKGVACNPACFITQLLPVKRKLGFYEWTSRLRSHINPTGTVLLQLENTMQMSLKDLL
* = called active by the depositor; ? = inconclusive; . = no result given; & = joins results of further samples. Not all compounds are listed; rates above refer to the full screens.

Structure,miR-21 reporter,Rango release inh,Rango-impB inh,GLA inh pH 4.5
O=C(O)CCCn1nc(-c2ccccc2)c2ccccc21,-4%,-6%,4.5%,2
COc1ccc(Cc2nc(=S)[nH][nH]2)cc1Br,-6%,1%,7.0%,5
CCC(=O)Nc1ccc(S(=O)(=O)Nc2ccccn2)cc1,-2%,-10%,-1.0%,11
O=C(CN1C(=O)c2ccccc2C1=O)Nc1cc(C(=O)O)cc(C(=O)O)c1,-6%,1%,-1.1%,.
Cc1nnsc1C(=O)N1CCCC(N2CCN(c3ccc(F)cc3)CC2)C1 (stereo not drawn),0%,11%,-1.3%,.
Nn1c(SCC(=O)Nc2ccc(S(N)(=O)=O)cc2)nnc1-c1ccco1,0%,-1%,-0.9%,.
Cc1cc2ncn(C(=O)N3CCCCCC3)c2cc1C,-55%,-4%,4.3%,-2
O=C(CC1(O)C(=O)Nc2ccccc21)c1cccc(-n2cccc2)c1 (stereo not drawn),-5%,8%,0.5%,4
COc1ccc(-c2noc(CCC(=O)NCCc3ccccc3)n2)cc1,-14%,0%,3.5%,.
CC(C)Oc1ccc(N2CC(C(=O)NC3=NCCS3)CC2=O)cc1 (stereo not drawn),-1%,0%,2.4%,2

Single records, as listed above. Screens in order: miR-21 reporter | Rango release inh | Rango-impB inh | GLA inh pH 4.5
Shown for O=C(CN1C(=O)c2ccccc2C1=O)Nc1cc(C(=O)O)cc(C(=O)O)c1 : -6% | 1% | -1.1% | .
Shown for CC(C)Oc1ccc(N2CC(C(=O)NC3=NCCS3)CC2=O)cc1 (stereo not drawn) : -1% | 0% | 2.4% | 2
Shown for COc1ccc(-c2noc(CCC(=O)NCCc3ccccc3)n2)cc1 : -14% | 0% | 3.5% | .
Shown for CCC(=O)Nc1ccc(S(=O)(=O)Nc2ccccn2)cc1 : -2% | -10% | -1.0% | 11

Additional entries.
Structure,miR-21 reporter,Rango release inh,Rango-impB inh,GLA inh pH 4.5
CC(=O)Nc1ccc(NS(=O)(=O)c2cc(Cl)ccc2Cl)cc1,-2%,7%,-0.7%,3
NC(=O)c1c(NC(=O)c2cccc(N3C(=O)CCC3=O)c2)sc2c1CCCCC2,7%,-5%,-0.7%,.
Cc1ccc(C)c(N(CC(=O)N/N=C/c2ccc(-c3ccc([N+](=O)[O-])cc3)o2)S(=O)(=O)c2ccccc2)c1,2%,?,?,-16
Nc1ccccc1SCC(=O)Nc1ccc2c(c1)OCCO2,-32%,11%,-1.4%,.
COc1ccccc1CNC(=O)c1oc2ccc(S(=O)(=O)N3CCOCC3)cc2c1C,-6%,14%,-0.5%,.
CC1CCN(c2c(NCc3ccc(C(=O)NCC4COc5ccccc5O4)cc3)c(=O)c2=O)CC1 (stereo not drawn),.,17%,0.1%,.
O=C1c2ccccc2C(=O)N1CCn1nc(Cl)nc1Cl,3%,16%,2.3%,6
CCCCn1c(N)c(N(CCC(C)C)C(=O)COC(=O)c2ccccc2)c(=O)[nH]c1=O,4%,-1%,0.0%,5
O=C(O)c1ccccc1NCc1cccs1,-1%,-20%,-5.1%,.
COCC(C)n1c(C)cc(C(=O)CSc2nc3ccccc3c(=O)[nH]2)c1C (stereo not drawn),-18%,-13%,?,-7

4 entries already listed, arranged by their value in Rango release inh, high to low:
structure	Rango release inh
CC1CCN(c2c(NCc3ccc(C(=O)NCC4COc5ccccc5O4)cc3)c(=O)c2=O)CC1 (stereo not drawn)	17%
O=C1c2ccccc2C(=O)N1CCn1nc(Cl)nc1Cl	16%
Nc1ccccc1SCC(=O)Nc1ccc2c(c1)OCCO2	11%
COCC(C)n1c(C)cc(C(=O)CSc2nc3ccccc3c(=O)[nH]2)c1C (stereo not drawn)	-13%

(list continues)
Structure,miR-21 reporter,Rango release inh,Rango-impB inh,GLA inh pH 4.5
COC(=O)c1sc(S(=O)(=O)Nc2ccc(C)cc2)c(C(=O)OC)c1C,-6%,-14%,0.2%,-4
COc1cccc(N2CCN(C(=O)c3ccc(CS(=O)c4ccccc4C)o3)CC2)c1 (stereo not drawn),20%,-6%,4.8%,.
COc1ccccc1OCC(=O)NNC(=O)C(=O)N1CCCC1,-5%,-8%,5.5%,-1
O=C(c1ccco1)n1nc(NCc2ccccc2)nc1NCc1ccccc1,-6%,-3%,?,-7
Cc1ccc(NC(=O)c2cc(NC(=O)C3CC=CCC3C(=O)O)ccc2N2CCOCC2)cc1 (stereo not drawn),-9%,-1%,0.9%,2
Cc1ccc(N(CC(=O)NCc2ccc(F)cc2)S(=O)(=O)c2c(C)n[nH]c2C)cc1,5%,23%,0.4%,.
COCCn1c(C)cc(C(=O)COC(=O)CNC(=O)c2ccccc2)c1C,-13%,0%,5.3%,0
COc1ccc(/C(C)=N/Nc2nccnc2Cl)cc1,.,5%,-3.7%,.
CC(CN1CCOCC1)C(=O)c1ccccc1 (stereo not drawn),1%,25%,4.2%,4
C/C(=N\NC(=O)c1cccc(Br)c1)c1cccnc1,-20%,-11%,2.2%,.

(cont.)
Structure,miR-21 reporter,Rango release inh,Rango-impB inh,GLA inh pH 4.5
CC1CCCCC12NC(=O)N(CC(=O)NCCc1c[nH]c3ccccc13)C2=O (stereo not drawn),.,-18%,-2.9%,.
O=c1[nH]c2cc3c(cc2cc1CN(Cc1cccnc1)C(=S)NCc1ccco1)OCO3,3%,5%,?,0
CC1(C)Cc2c(sc(NC(=O)COc3ccccc3)c2C#N)C(C)(C)N1,-10%,0%,-2.6%,3
CCOC(=O)C1=C(C)NC2=C(C(=O)c3ccccc32)C1c1ccc([N+](=O)[O-])o1 (stereo not drawn),11%,5%,1.5%,-5
O=C(C(Cl)c1ccccc1)N1CCOCC1 (stereo not drawn),20%,0%,-3.8%,.
CN(C(=O)COC(=O)c1ccc(Cl)c(S(=O)(=O)N2CCCCCC2)c1)C1CCS(=O)(=O)C1 (stereo not drawn),.,20%,2.1%,.
Cc1ccc(NC(=O)C2CCN(S(=O)(=O)c3cccs3)CC2)cc1,0%&-2%,4%,2.1%,-13
CCn1c(SCC(=O)c2ccccc2)nnc1-c1cccnc1,-22%,-5%,1.1%,10
O=C(CCN1CCOCC1)c1ccc2c(c1)OCCO2,-1%,-10%,3.4%,-1
CCOC(=O)/C=C/C(=O)Nc1ccc(S(=O)(=O)Nc2cc(C)on2)cc1,-1%,-6%,1.2%,.

New compounds follow:
Structure,miR-21 reporter,Rango release inh,Rango-impB inh,GLA inh pH 4.5
CC(=O)C1=C(O)C(=O)N(c2ccc(S(N)(=O)=O)cc2)C1c1ccc([N+](=O)[O-])cc1 (stereo not drawn),1%,-7%,0.7%,-6
O=C(NNC(=S)NCc1ccco1)c1ccccc1Br,-5%,-3%,-5.7%,.
COCCCNC(=S)Nc1ccc2nc3n(c(=O)c2c1)CCCCC3,-5%,-4%,0.1%,-12
COc1ccc(CNC(=O)CN(c2ccccc2)S(=O)(=O)c2ccccc2[N+](=O)[O-])cc1,4%,-4%,-1.3%,1
O=C(NC1CCCC1)c1ccccc1-c1ccccc1,-3%,20%,-2.6%,-15
CN(CC(=O)O)S(=O)(=O)c1ccc2c(c1)n(C)c(=O)c(=O)n2C,-2%,12%,1.8%,4
CCC(C)NCCC(=O)Nc1ccc(Cl)c(S(=O)(=O)Nc2ccc(Cl)cc2)c1 (stereo not drawn),0%,12%,4.2%,5
CC1(C)OC(=O)C(=CNc2ccccn2)C(=O)O1,-1%,0%,-1.6%,-4
O=C1C(c2ccccc2)NC(=S)N1C1CCCCC1 (stereo not drawn),-8%,-6%,-5.2%,.
CCOc1ccc(NC(=O)CSc2ncc(-c3ccc(F)cc3)n2Cc2ccco2)cc1,5%,0%,-0.1%,-17

(further entries)
Structure,miR-21 reporter,Rango release inh,Rango-impB inh,GLA inh pH 4.5
COC(=O)C(/C=N/O)NC(=O)c1ccccc1 (stereo not drawn),4%,-3%,0.3%,1
O=C(CCCn1ncn2c(cc3occc32)c1=O)NCc1cccc(Cl)c1,-2%,-18%,2.5%,.
CCOc1cc(N2CCOCC2)c(OCC)cc1NC(=O)COC(=O)CCn1c(C)csc1=O,.,-4%,3.3%,.
C[C@@H]1CN([C@@H](C)CO)C(=O)c2cccc(NC(=O)C3CCCCC3)c2O[C@@H]1CN(C)Cc1ccc(Cl)c(Cl)c1,.,?,?,.
CN(C)S(=O)(=O)c1ccc(N2CCCC2)c(C(=O)NCc2ccccc2)c1,2%,-11%,-0.4%,-10
COc1ccc(S(=O)(=O)N2CCOC2CNC(=O)C(=O)NCCc2c[nH]c3ccccc23)cc1C (stereo not drawn),20%,0%,-2.7%,-9
Cc1ccc(C2=NOC(C)(c3nnc(Cc4ccccc4)o3)C2)cc1 (stereo not drawn),.,-4%,-0.9%,.
O=C(CCn1nc(-c2ccccc2)ccc1=O)N1CCCC1,-24%,-4%,-0.6%,6
COC(=O)c1ccc(NC(=O)CNS(=O)(=O)c2cccs2)cc1,-10%,-7%,0.3%,1
COc1ccc(S(=O)(=O)CC2(O)CCN(C(=O)CC(C)C)CC2)cc1,-2%,9%,-4.3%,0

(next part)
Structure,miR-21 reporter,Rango release inh,Rango-impB inh,GLA inh pH 4.5
Cc1ccc(NC(=O)CCS(=O)(=O)c2ccc(Br)s2)cc1,-1%,-7%,-1.3%,.
CC(C)N(Cc1nc(-c2ccccc2)no1)C(=O)CN(C)S(=O)(=O)c1ccccc1,-5%,-8%,0.3%,7
C/C(CC(C)(C)C1CCCCC1)=N\NC(N)=S,?,-6%,-2.1%,3
Cn1c(O)c(C(C#N)=C2N=c3ccccc3=N2)c2ccccc21,-7%,-16%,-2.6%,10
CC(OC(=O)c1ccc(Br)o1)C(=O)Nc1ccc2c(c1)OCCO2 (stereo not drawn),.,0%,-1.8%,.
O=C(NN1C(=O)C2C3CCC(O3)C2C1=O)c1ccc(Br)o1 (stereo not drawn),-3%,-8%,-0.2%,-6
CCSc1nnc(-c2ccncc2)o1,-13%,4%,-4.8%,11
CC1=NNC(=O)/C1=C\c1cn(-c2ccccc2)nc1-c1ccccc1,?,3%,9.1%,2
O=C(NC(=S)NNC(=O)c1ccccc1O)c1cccs1,-3%,5%,-0.4%,.
COc1cc(/C=N/NC(=O)CCN2CCN(C(c3ccccc3)c3ccccc3)CC2)ccc1O,0%,2%,0.6%,-2

The listing continues.
Structure,miR-21 reporter,Rango release inh,Rango-impB inh,GLA inh pH 4.5
CCN1C(=O)[C@H]2[C@@H](c3ccc(-c4ccc(C(C)=O)cc4)cc3)N[C@@](Cc3ccccc3)(C(=O)OC)[C@H]2C1=O,.,-27%,1.5%,.
O=C1CCc2cc(NS(=O)(=O)c3ccc(F)cc3)cc3c2N1CCC3,.,-4%,?,.
N#C/C(=C\N1CCN(Cc2ccc3c(c2)OCO3)CC1)c1nc2ccccc2s1,0%,?,?,-4
COc1cc(C(=O)Nc2ccncc2)c([N+](=O)[O-])cc1OC,2%,-9%,1.7%,-2
CC(=O)N/N=C\c1ccccc1OC/C=C/c1ccccc1,-56%,12%,0.4%,.
CCOc1cc(Br)c(CC(=O)O)cc1OCC,7%,5%,6.0%,-2
COc1ccc(N2CCN(C(=O)c3cc(=O)[nH]c4ccccc34)CC2)cc1,-3%,0%,0.1%,-4
Cc1cc2cc(CNC(=O)Cc3cccs3)ccc2n1C,0%,?,-3.0%,-2
S=C(NCc1ccco1)Nc1cc(Cl)c(Cl)cc1Cl,22%,-6%,0.9%,2
CCN(CC)C(=O)C1CCN(Cc2cccc(OCc3ccccc3)c2)CC1,0%,25%,2.5%,-16

Three neighbouring compounds out of the list so far:
Structure,miR-21 reporter,Rango release inh,Rango-impB inh,GLA inh pH 4.5
CCN1C(=O)[C@H]2[C@@H](c3ccc(-c4ccc(C(C)=O)cc4)cc3)N[C@@](Cc3ccccc3)(C(=O)OC)[C@H]2C1=O,.,-27%,1.5%,.
O=C1CCc2cc(NS(=O)(=O)c3ccc(F)cc3)cc3c2N1CCC3,.,-4%,?,.
N#C/C(=C\N1CCN(Cc2ccc3c(c2)OCO3)CC1)c1nc2ccccc2s1,0%,?,?,-4
